TSHR agonist = TSH receptor (human) agonism. P16473. Potency, µM (series often up to 57.1 µM), without a hit: top-dose activation, hits mostly activators. 73,000 compounds, 0.48% hits. HEK293-CNG-TSHR cells (CNG channel as cAMP sensor), membrane potential dye, cAMP. AID 926; active = well fitted activation curve of enough size with the parental cells flat; inconclusive = any curve in the parental cells; inactive = parental cells flat and receptor cells flat or falling; also: potency is read from the fitted curve at half-maximal effect; % of control where 0% means no effect; weak receptor curves with flat parental cells got no call and are not listed
Target sequence (P16473 whole entry, looked up): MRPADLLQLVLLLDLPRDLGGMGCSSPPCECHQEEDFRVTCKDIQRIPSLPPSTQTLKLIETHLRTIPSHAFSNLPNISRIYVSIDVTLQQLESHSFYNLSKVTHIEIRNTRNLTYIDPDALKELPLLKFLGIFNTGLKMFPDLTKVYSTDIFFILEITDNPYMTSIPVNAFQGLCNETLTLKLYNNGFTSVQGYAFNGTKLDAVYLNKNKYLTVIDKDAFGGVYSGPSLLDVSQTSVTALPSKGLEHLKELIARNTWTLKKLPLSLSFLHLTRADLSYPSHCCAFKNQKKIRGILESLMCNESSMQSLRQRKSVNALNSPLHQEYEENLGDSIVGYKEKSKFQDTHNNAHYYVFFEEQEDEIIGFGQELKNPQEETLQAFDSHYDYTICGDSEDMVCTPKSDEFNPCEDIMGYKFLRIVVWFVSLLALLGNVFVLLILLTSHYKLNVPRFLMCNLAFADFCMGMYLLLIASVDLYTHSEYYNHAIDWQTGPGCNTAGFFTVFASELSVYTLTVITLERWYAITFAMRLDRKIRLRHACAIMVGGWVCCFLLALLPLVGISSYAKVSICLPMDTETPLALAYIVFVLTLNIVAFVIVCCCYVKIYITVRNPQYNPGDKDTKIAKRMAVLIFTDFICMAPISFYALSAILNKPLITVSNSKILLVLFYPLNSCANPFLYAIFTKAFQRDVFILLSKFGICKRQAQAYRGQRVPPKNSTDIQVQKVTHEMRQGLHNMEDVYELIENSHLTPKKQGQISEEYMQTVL
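HEK 293 cells stably expressing TSHR and a modified CNG channel, with CNG-only parental cells as counterscreen, were preloaded 60 min at room temperature with membrane potential dye containing 100 uM RO 20-1724. Compound exposure was 30 min, and depolarization was read as fluorescence at 590 nm.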
A647 fluor = A647 region autofluorescence | Compound fluorescence, A647 channel (570/671 nm), Tris buffer | max dye-equivalent concentration, M | 59,000 tested, under 10 active | AID 592; active means above 1 µM dye equivalent; inconclusive means 0.1 to 1 µM; inactive means 0.1 µM or less;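 also: values scaled relative to a standard on each plate; highest value over a series up to 38 µM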
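Compound fluorescence was measured in 100 mM Tris buffer, pH 8.0, after 15 min at room temperature, using 570 nm excitation and 671 nm emission filters. Signal was normalized to a per-plate Alexa 647 standard curve and expressed as dye-equivalent concentration at each compound concentration.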
Resorufin autofl = resorufin region autofluorescence. max dye-equivalent concentration, M. 59,000 compounds, 0.04% hits. Compound fluorescence, resorufin region 547/598 nm, buffer; stronger effect = higher value. AID 588; active = above 10 nM dye equivalent; inconclusive = 1 to 10 nM; inactive = 1 nM or less; a few of its hits are not listed in these tables; also: highest value over a series up to 38 µM
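Compounds in 100 mM Tris buffer, pH 8.0, incubated 15 min at room temperature, then read with 547 nm excitation and 598 nm emission filters. Fluorescence was converted to dye-equivalent concentration using an on-plate six-point resorufin standard curve.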
AID923 = qHTS Assay for Allosteric/Competitive Inhibitors of Caspase-1: Spectroscopic Profiling in AFC Spectral Region. compound fluorescence, AFC spectral region (405/520 nm); almost no hit is shown here. Potency, µM (top dose mostly 57.5 µM), for inactives: at the top dose fluorescence increase, actives largely listed as activators. 75,000 compounds, 1.1% hits; active = well fitted activation curve with a large enough effect; inconclusive = small, poorly fitted or top-dose-only effect;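 also: potency is read from the fitted curve at half-maximal effect; 0% is about no effect; scaled to a free AFC standard on each plate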
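Titrations up to 57 uM read every 20 sec for 3 min (405/520 nm) with 50 nM caspase 1 and 5 uM Ac-WEHD-AFC, pH 7.5 HEPES buffer. Fluorescence-vs-time intercept gave baseline, scaled against on-plate AFC standard.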
A488 fluor = compound fluoresces in the A488 spectral region; compound autofluorescence, A488 spectral region, dye equivalency; stronger effect = higher value; max dye equivalency, M; 59,000 compounds, 0.1% hits; AID 591; active = above 10 nM dye equivalent; inconclusive = 1 to 10 nM; inactive = 1 nM or less; about half of its hits are not listed in these tables;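 also: highest value over a series up to 38 µM; compound alone in buffer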
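Compound autofluorescence was read in 100 mM Tris pH 8.0 after 15 min at room temperature, ex 480 nm/em 540 nm. Intensities were converted to A488 dye-equivalent concentration using an on-plate six-point A488 standard curve.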
Starred values were filed as active, the others as inactive; i = inactive; ? = inconclusive; . = not tested or not shown; [ ] = another dose, or the depositor's remark. The list is partial; count on the stated rates, not on these rows.

| SMILES | TSHR agonist | A647 fluor | Resorufin autofl | AID923 | A488 fluor |
| --- | --- | --- | --- | --- | --- |
| CSc1ccccc1NC(=O)CN(c1ccccc1)S(=O)(=O)N(C)C | ? | 2.4e-09 | i | 1.7% | i |
| CN(CCC#N)c1ncnc2scc(-c3ccccc3)c12 | ? | 2.9e-08 | i | -2.8% | i |
| Cc1cccc2nc(CNc3ccc(F)cc3)cn12 | 6% | 2e-08 | i | 1.1% | i |
| CC1(C)NC(=O)N(CC(O)COC2CCCCC2)C1=O (stereo not drawn) | 0%[11.4 µM] | 9.1e-09 | i | 0.7% | i |
| O=C(COc1ncnc2ccccc12)NC(=O)NCc1ccccc1 | 4% | 3.2e-08 | i | -0.7% | i |
| COc1cccc(NC(=O)C2CCCN(S(=O)(=O)c3ccc(-n4cnnn4)cc3)C2)c1 (stereo not drawn) | -4% | 1e-09 | i | -2.1% | i |
| Cc1sc2ncn(CC(=O)N(CC(=O)NC3CCCC3)Cc3cccs3)c(=O)c2c1C | 3% | 2.7e-09 | i | 2.2% | i |
| Oc1cccc(O)c1O | 2% | . | . | 1.1% | . |
| COC(=O)COc1ccc(S(=O)(=O)Nc2ccc3c(c2)OCCO3)cc1Cl | 4% | 3.2e-09 | i | -1.1% | i |
| CCOC(=O)N1CCN(C(=O)c2cc3sccc3n2C)CC1 | 0% | . | . | -1.1% | . |
| COC(=O)C(CC(C)C)NC(=O)c1cc(OC)c(OC)c(OC)c1 (stereo not drawn) | 5% | . | . | -1.8% | . |
| Cc1ccc2c(C(=O)CN3CCN(C4CCCCC4)CC3)c(C)[nH]c2c1 | 5% | 3.2e-08 | i | 2.7% | i |
| O=C(CSc1nnc(-c2cc3ccccc3cc2O)n1Cc1ccco1)c1ccc(F)cc1 | . | 2.3e-08 | i | -0.8% | i |
| CC1CCN(C(=O)COC(=O)c2n[nH]c3ccccc23)CC1 | -10% | 1.3e-08 | i | 0.0% | i |
| CC(C)c1cc(C(=O)Nc2cc(Cl)ccc2O)no1 | -16% | 1.9e-08 | i | 2.1% | i |
| c1cncc(-c2nnc(-c3cccnc3)nn2)c1 | -10% | 9.4e-09 | i | -0.2% | i |
| Cc1c(C(=O)Nc2cccc(C(F)(F)F)c2)oc2ccc(S(=O)(=O)N3CCOCC3)cc12 | 9% | 3.8e-08 | i | -0.3% | i |
| Cc1cc(C)nc(NC(=O)C(C)N2C(=O)c3ccccc3C2=O)n1 (stereo not drawn) | 3% | 1.1e-09 | i | -3.2% | i |
| CC(O)CC(C)O (stereo not drawn) | -2% | . | . | 2.0% | . |
| Cc1ccc(OC(=O)NC2CCS(=O)(=O)C2)cc1C (stereo not drawn) | 0% | 4.1e-08 | i | -0.1% | i |
| CCCCS(=O)(=O)Nc1ccc2c(c1)ncn2C1CCCCC1 | 26% | 4.6e-09 | i | -1.2% | i |
| Cc1nnc(SCC(=O)NCc2cccs2)[nH]c1=O | -2%[11.4 µM] | 6.7e-09 | i | -1.0% | i |
| CSc1ncnc2nc[nH]c12 | -1% | . | . | 11% | . |
| COc1ccc(C2CC(=O)C3=C(C2)NC(C)=C(C#N)C3c2ccc(N(C)C)cc2)cc1 (stereo not drawn) | -16% | . | . | 12% | . |
| CCc1ccccc1NC1c2ccccc2C(=O)N1c1cccnc1 (stereo not drawn) | 23% | 1.1e-08 | i | -0.1% | i |
| O=C(CCS(=O)(=O)c1cc(Br)cc2c1N(C(=O)C1CC1)CC2)NCc1ccco1 | 10% | 2.3e-08 | i | 0.6% | i |
| CC1CCCCN1CCNC(=O)c1cnn2ccccc12 (stereo not drawn) | ? | . | . | 7.5% | . |
| CC1=C(C(=O)Nc2ccc(Cl)cc2)C(c2cccs2)n2nnnc2N1 (stereo not drawn) | -12% | 1.3e-09 | i | -1.3% | i |
| O=C(CSc1nnc(-c2cccs2)o1)N1CCc2ccccc21 | ? | 1e-09 | i | -0.9% | i |
| O=C(O)CCNCC(=O)O | -5%[11.4 µM] | 1e-09 | i | -4.4%[11.5 µM] | i |
| COc1ccc(CNc2ncnc3ccc(-c4ccccc4C#N)cc23)c(OC)c1 | 28% | 1e-09 | i | 5.4% | i |
| Cc1ccc(-n2nc3c(c2NC(=O)c2c(-c4ccccc4Cl)noc2C)CSC3)cc1 | ? | 1.4e-08 | i | 1.9% | i |
| CN1CCN(C(=O)c2cc(-c3ccc(O)cc3)on2)CC1 | 9% | . | . | 3.1% | . |
| O=C(C1CCN(CC2CCCCC2)CC1)N1CCCC1 | 18% | . | . | 1.1% | . |
| CC(=O)Nc1ccc(S(=O)(=O)Nc2cccc(C(=O)NC(C)(C)C)c2)cc1 | -2% | . | . | -0.2% | . |
| NC1=NC2(CCC(c3ccccc3)CC2)n2c(nc3ccccc32)N1 (stereo not drawn) | 1%[11.4 µM] | 1e-09 | i | 5.4% | i |
| FC(F)(F)c1nnc2sc(-c3ccncc3)nn12 | -1% | 5.2e-09 | i | -2.5% | i |
| Cc1noc(C)c1C(=O)N1CCC2(CCN(Cc3ccc(C#N)cc3)CC2)CC1 | 8% | 1e-09 | i | 5.1% | i |
| CCN(CC)C(=O)CSc1nc2ccccc2c(=O)n1CC1CCCCC1 | . | 2.7e-09 | i | . | i |
| CCOC(=O)N1CCC(NC(=O)c2cc3c(-c4ccc(Cl)cc4)nn(C)c3s2)CC1 | 1% | . | . | 0.4% | . |
| CCOC(=O)C1=C(N)Oc2cc(C)n(CCc3ccc(OC)c(OC)c3)c(=O)c2C1c1cccnc1 (stereo not drawn) | . | 3.8e-09 | i | 0.2% | i |
| COC(=O)c1cccc(Cn2nnc3ccccc3c2=O)c1 | -5% | 1e-09 | i | 1.0% | i |
| O=C(N1CCCCCC1)N1CCN(S(=O)(=O)N2CCCCC2)CC1 | 2% | 4.3e-09 | i | 0.0% | i |
| CC1(C)CC(=O)CC(C)(C)N1OC(=O)c1ccncc1 | 7% | 8.2e-09 | i | 0.6% | i |
| CN1CCN(C(=O)c2ccccc2-c2nc(-c3ccc(Cl)cc3)no2)CC1 | 28% | 1.8e-08 | i | -0.5% | i |
| CCOc1cc(S(=O)(=O)NC2CC(C)(C)NC(C)(C)C2)ccc1F | 0% | 1e-09 | i | -1.3% | i |
| CC1(C)Cc2nc3oc4c(N(CCO)Cc5ccccc5)ncnc4c3cc2CO1 | 5% | 1.4e-08 | i | -0.4% | i |
| CCOC(=O)c1ccccc1NC(=O)COc1ccccc1 | ? | 5.5e-09 | i | -1.3% | i |
| Cn1ncc(C#N)c1/N=C/N1CCOCC1 | 0% | 2e-08 | i | -1.1% | i |
| CCOC(=O)N1CCN(C(=O)CSc2nnc(COc3ccc(Cl)cc3)o2)CC1 | ? | . | . | 1.0% | . |
| Cc1cc(C(c2nnnn2Cc2ccccc2)N2CCOCC2)c(C)n1-c1ccc2c(c1)OCO2 (stereo not drawn) | ? | 3.2e-09 | i | 2.9% | i |
| O=C(NCC1CCCO1)c1ccccc1-c1nc(-c2ccccc2)no1 (stereo not drawn) | 12% | 1e-09 | i | -0.6% | i |
| O=c1c[n+]([O-])c2ccccc2n1OCc1ccccn1 | 0% | 1e-09 | i | 5.7% | i |
| O=C(CCCCCC(=O)N(CCO)CCO)N(CCO)CCO | 7% | 1e-09 | i | 1.1% | i |
| CC(C)=CCC/C(C)=C/CCC(C)NCCN1CCNCC1 (stereo not drawn) | 1% | 2.6e-08 | i | -0.8% | i |
| CN(C)CCCSC(=N)N | 0% | 2e-09 | i | -2.2% | i |
| COc1ccc(NC(=O)c2ccc3c(c2)C(=O)N(Cc2cccnc2)C3=O)cc1 | 0% | 1e-09 | i | 1.7% | i |
| COc1ccc(Cl)cc1NC(=O)N1CCN(CCc2ccccc2)CC1 | 4% | 1.6e-08 | i | 0.5% | i |
| COc1ccc(-n2c(=O)c3c4c(sc3n3c(C)nnc23)CC(C)CC4)cc1 (stereo not drawn) | . | 5.6e-08 | i | . | i |
| O=C(O)CCc1ccc(-c2ccc(F)cc2)n1CCC(=O)O | 2% | 3.3e-09 | i | 0.1% | i |

(continued)
| SMILES | TSHR agonist | A647 fluor | Resorufin autofl | AID923 | A488 fluor |
| --- | --- | --- | --- | --- | --- |
| O=C(Nc1cc(C(=O)N2CCCC2)ccc1N1CCCC1)c1ccccc1F | 12% | 5.4e-08 | i | 0.0% | i |
| COC(=O)c1ccccc1NC(=O)C1CCCC1 | 7% | 1.8e-08 | i | 1.4% | i |
| Fc1ccc(C(c2nnnn2C2CCCC2)N2CCN(Cc3ccccc3)CC2)cc1 (stereo not drawn) | ? | 1e-09 | i | 0.1% | i |
| Nc1ccn([C@H]2CC[C@H](CO)O2)c(=O)n1 | ? | 4.6e-08 | i | . | i |
| N#CC(C#N)=CNCCN1CCN(C=C(C#N)C#N)CC1 | -1%[11.4 µM] | 1e-09 | i | 2.6%[11.5 µM] | i |
| CCCCn1cc(C(C)(C)C)c(C#N)c1NC(C)=O | 15% | . | . | 1.4% | . |
| CC(=O)c1nccs1 | 5% | . | . | -2.0% | . |
| O=C1CC(c2nc3ccccc3[nH]2)CN1c1ccccc1 (stereo not drawn) | -3% | 1e-09 | i | 0.8% | i |
| COC(=O)c1[nH]c(C)c(/C(O)=C2\C(=O)C(=O)N(CCN(C)C)C2c2ccccc2OC)c1C (stereo not drawn) | 7% | 5.4e-09 | i | 5.7% | i |
| CC(=O)Oc1cccc(N2C(=O)CC(Nc3ccc(N4CCOCC4)cc3)C2=O)c1 (stereo not drawn) | -13% | 1e-09 | i | 2.1% | i |
| CCOc1ccc(C(=O)NCCCn2ccnc2)cc1 | 3% | 1e-09 | i | 1.8% | i |
| CC(=O)OC(C(=O)NCCc1ccccc1)c1cccnc1 (stereo not drawn) | -5% | 6.8e-09 | i | -0.3% | i |
| COc1cc2nc(C3CC3)n(NC(=O)c3ccc(F)cc3)c(=O)c2cc1OC | 5% | 3.2e-08 | i | 4.1% | i |
| Nc1cc(=O)[nH]n1C1CCN(c2ccccc2)CC1 | 14% | 1e-08 | i | 1.7% | i |
| CCOc1cc(S(=O)(=O)Nc2ccc(Cl)cn2)ccc1F | 6% | 1e-09 | i | 0.2% | i |
| O=C(NCCCN1CCCC1=O)c1cccs1 | 0% | . | . | 1.3% | . |
| COc1ccc(CCn2c(C)ccc2C)cc1OC | . | 1e-09 | i | . | i |
| CCCOc1ccc(N2C(=O)C3ON(c4ccccc4)C(c4ccc(O)c(OC)c4)C3C2=O)cc1 (stereo not drawn) | . | 2.2e-08 | i | . | i |
| O=C(CN1CCN(c2ncccn2)CC1)NCCC1=CCCCC1 | 10% | 6e-08 | i | 0.6% | i |
| COc1ccc(CC(=O)Nc2ccc(-c3nnc(-c4ccccc4)o3)cc2)cc1 | 4% | . | . | -0.1% | . |
| COC(=O)C1=C(C)N(Cc2ccccc2)[C@]23O[C@](C(=O)OC)(C(=O)N2C1c1ccccc1)C1CCOC(=O)C13 (stereo partly drawn) | -1%[11.4 µM] | . | . | -1.8%[11.5 µM] | . |
| O=C(Oc1ccccc1)N1CCC2(CC1)CN(c1ccncc1)C2 | -5% | 1.2e-08 | i | -3.2% | i |
| COc1cccc2c(C)nc(Nc3nc(CSc4nnc(C)s4)cc(=O)[nH]3)nc12 | 12% | 2.3e-08 | i | -0.6% | i |

Source: PubChem BioAssay
